# VACV mCherry inh: inhibitors of vaccinia virus infection (mCherry reporter signal). Vaccinia virus mCherry reporter infection, fluorescence; about a quarter of the inactives have no number. Potency, µM (top dose mostly 36.5 µM), without a hit: at the top dose activity change, negative = inhibition, usual class: inhibitors. hit rate 0.63% among 310,000. AID 720579; active = well fitted inhibition curve with a large enough effect; inconclusive = small, poorly fitted or top-dose-only effect; inactive = no such curve, though single readings can be large or run the other way; tested in A549 cells; also: nearly all actives have a fitted effect of over 35% in size; inactives centre near -10
# VACV Venus inh: inhibitors of vaccinia virus (Venus reporter); Potency, µM (highest dose often 36.5 µM), for the others: at the top dose activity change, negative = inhibition, usual class: inhibitors; AID 720580; hit rate 0.46% among 330,000; Vaccinia virus Venus reporter expression, fluorescence; active means well fitted inhibition curve with a large enough effect; inconclusive means small, poorly fitted or top-dose-only effect; inactive means no such curve, though single readings can be large or run the other way; tested in A549 cells; also: nearly all actives have a fitted effect of over 30% in size; inactives centre near -10
# The depositor's hits bear a star; i = inactive; ? = inconclusive; . = no result given; [ ] = another dose, or the depositor's remark. % is scaled to controls: 0 for no effect and ±100 for the full control effect; potency is read from the fitted curve at half-maximal effect.
# The opening 2 records (preview)
compound | VACV mCherry inh | VACV Venus inh
CCOC(=O)c1cnc2ccc(C)cc2c1NCCc1ccc(OC)c(OC)c1 | -25.5% | -17.8%
COC(=O)c1ccc(OC(=O)c2cccnc2)cc1 | -9.6% | -20.0%

# All compounds of this part, from the start:
compound | VACV mCherry inh | VACV Venus inh
CCOC(=O)c1cnc2ccc(C)cc2c1NCCc1ccc(OC)c(OC)c1 | -25.5% | -17.8%
COC(=O)c1ccc(OC(=O)c2cccnc2)cc1 | -9.6% | -20.0%
O=C(CC(=O)Nc1ccccc1C(=O)O)NNC(=O)Cc1ccccc1 | -13.1% | -11.3%
Cc1nc(Sc2ccc(Cl)cc2)c(C#N)c(C)c1[N+](=O)[O-] | ? | -1.2%
O=[N+]([O-])c1ccc(Nc2nc(NC3CCCCC3)nc(N3CCCC3)n2)cc1 | -6.0% | -13.1%
COC(CNC(=O)c1ccc2c(c1)nc(C)n2-c1cccc(C)c1)OC | i | -13.9%
C=CCNC(=O)/C=C/c1cccs1 | -2.3% | 2.2%
Cc1coc2c(C)c3oc(=O)c(CCC(=O)N[C@H](C(=O)O)C(C)C)c(C)c3cc12 | -4.8% | -13.5%
CCCCC(C(=O)OCC(=O)c1ccc(OC)cc1)N1C(=O)c2ccccc2C1=O (configuration not stated) | -15.5% | -12.5%
Cc1ccc(C)c(SCC(=O)NCc2ccco2)c1 | -24.2% | -10.1%
CS/C(N)=N/N=C/c1c(O)ccc2ccccc12 | ? | 5.5%
CC(O)(c1ccc(F)c(F)c1)c1nc(/C=C/c2ccccc2)cs1 (configuration not stated) | -10.0% | -0.2%

# Random excerpt: 3 compounds from above.
compound | VACV mCherry inh | VACV Venus inh
O=C(CC(=O)Nc1ccccc1C(=O)O)NNC(=O)Cc1ccccc1 | -13.1% | -11.3%
Cc1nc(Sc2ccc(Cl)cc2)c(C#N)c(C)c1[N+](=O)[O-] | ? | -1.2%
CS/C(N)=N/N=C/c1c(O)ccc2ccccc12 | ? | 5.5%

# Remaining list, next part:
compound | VACV mCherry inh | VACV Venus inh
CCOC(=O)C1CCN(CC(=O)Nc2cc(S(=O)(=O)N3CCOCC3)ccc2C)CC1 | -7.4% | -11.6%
CCCOc1ccc(-c2nnc(N)s2)cc1 | i | -9.5%
COc1cccc2c1C(=N)c1c(O)c3c(c(O)c1C2=O)CC(O)(C(C)=O)CC3OC1CC(N)C(O)C(C)O1 (configuration not stated) | 150.3%[activator] | ?
Cc1cc([N+](=O)[O-])nn1CCCC(=O)N1CCN(c2ccc(F)cc2)CC1 | ? | -12.5%
c1ccc(C(CN2CCCCC2)c2ccccc2)cc1 | -16.7% | -11.9%
CCc1ccc2ncc3c(-c4ccc(F)cc4)nn(CC(=O)NCc4ccccc4)c3c2c1 | -3.1% | 4.4%
Cc1ccccc1OCCNCC(C)O (configuration not stated) | -1.4% | -4.6%
COc1cccc(C(=O)OCC(=O)c2c[nH]c3ccccc23)c1O | -14.4% | -6.2%
COc1ccc(C(C)(NC(C)=O)c2nc(-c3ccncc3)cs2)cc1 (configuration not stated) | -13.5% | -8.1%
Cc1ccccc1C(=O)NC(CC(C)C)C(=O)N1CCN(c2ccccc2)CC1 (configuration not stated) | -3.5% | 0.0%
CC[C@H]1CN2CCc3cc(OC)c(OC)cc3C2C[C@@H]1C[C@H]1NCCc2cc(OC)c(OC)cc21 (some centres not stated) | 0.501µM* | 0.891µM*
CN(C)S(=O)(=O)N1CCN(C(=O)c2ccccc2)CC1 | i | -12.6%
COc1ccccc1C(=O)NCC1(N2CCN(C)CC2)CCCCC1 | -7.1% | -6.6%
CCc1ccccc1S(=O)(=O)Cc1ccc(C(=O)NCCc2ccc(Cl)cc2)o1 | -27.2% | -23.9%
CCN(CC)S(=O)(=O)c1cc(C(=O)Nc2ccc(Cl)cn2)ccc1C | . | ?
Cc1ccc(NC(=O)Cc2sc(C)nc2-c2ccc(C)cc2)cc1 | -16.3% | 4.4%
COc1ccc(C2N(Cc3ccccc3)CCN2Cc2ccccc2)cc1[N+](=O)[O-] | -1.9% | -2.4%
C[C@H](NC(=O)C1CC(=O)N(c2ccc3c(c2)OCCO3)C1)C(=O)N1CCCCC1 (some centres not stated) | -11.7% | -1.6%
O=C(Nc1ccc(C(=O)N2CCN(c3ccncc3)CC2)cc1)c1ccc(Br)o1 | 0.3% | 6.3%
CCC(=O)c1cc2c(C)cc(=O)oc2c(C)c1O | -10.3% | -11.9%
Cc1ccsc1C(=O)N(C)CC(=O)Nc1ccccc1Br | -17.2% | -9.1%
CSc1nc(O)c(C2OC(=O)c3ccccc32)c(=O)[nH]1 (configuration not stated) | i | -11.2%
CC1CCc2nc(NC(=O)COc3ccc(C(C)(C)C)cc3)sc2C1 (configuration not stated) | -11.4% | 5.3%
Cc1cccc(NC(=O)CSc2ccc(C(N)=O)cc2[N+](=O)[O-])c1C | i | -12.0%
Cc1ccc(CNS(=O)(=O)c2ccc(N3CCCCS3(=O)=O)cc2)cc1 | -19.4% | -16.5%
CCOC(=O)C1=C(C)N=C2SC(C(=O)OC)=CC(=O)N2C1c1cccc(OC)c1 (configuration not stated) | -17.6% | -18.3%
CCN(CC)CCC(c1cc(OC)c(OC)c(OC)c1)c1c(O)cc(OC)cc1OC (configuration not stated) | i | -9.6%
CC(=O)C1(O)C(C)CC2C3CC(F)C4(O)CC(O)CCC4(C)C3CCC21C (configuration not stated) | -9.1% | 1.6%
Cc1ccc(NC(=O)CN2CCOCC2)c(Br)c1 | -1.2% | -9.5%
Cc1ccc(N=Cc2c(O)n(-c3cc(Cl)ccc3N3CCOCC3)c(=O)c3ccccc23)cc1C | -3.2% | -19.2%
CC(C)N(C(C)C)S(=O)(=O)c1ccc(N2CCc3ccccc3C2)nc1 | -20.6% | -10.3%
Nc1ccc(S(=O)(=O)NC2(C(F)(F)F)NC(=O)N(c3cccc(Cl)c3)C2=O)cc1 (configuration not stated) | -2.5% | -6.8%
CN1CCN(NC(=O)c2ccc(Br)c(S(=O)(=O)N3CCOCC3)c2)CC1 | i | -1.5%
Cc1ccc(S(=O)(=O)Nc2cnn(-c3ccccc3)c(=O)c2Cl)cc1 | i | -1.8%
CS(=O)(=O)c1ccc(Cl)c(NC(=O)CSc2nc3ccccc3c(=O)n2Cc2ccco2)c1 | -9.0% | -10.2%
COc1ccc(Cl)cc1NC(=O)CCc1nnc2ccc(N3CCC4(CC3)OCCO4)nn12 | -14.3% | -10.6%
COc1ccc(CCC(=O)Nc2sccc2C#N)cc1 | -14.6% | -1.5%
COC(=O)N1Cc2ccccc2-n2nncc2C1 | -20.5% | -16.6%
COc1ccccc1C(=O)N/C(=C\c1ccccc1)C(=O)NCc1ccco1 | -25.3% | -0.3%
CN(C)S(=O)(=O)c1cc(NC(=O)CSc2ncc(C(F)(F)F)cc2Cl)ccc1Cl | -23.1% | -11.4%
CCOC(=O)c1c(C)sc(-c2c(-c3ccc(OC)c(F)c3)[nH]c3c2c(=O)[nH]c(=O)n3C)c1O | -7.1% | 42.9%[activator]
O=C1CC(NS(=O)(=O)c2ccc(F)cc2)CN1c1ccc2c(c1)OCCO2 (configuration not stated) | i | -5.6%
COC(=O)c1sccc1NC(=O)c1cc(C)on1 | -5.0% | -15.6%
CN(C)c1cc(Nc2ccc(O)cc2)c([N+](=O)[O-])c2nonc12 | -6.8% | 6.5%
COc1ccc(OCCOC(=O)c2cccs2)cc1 | -9.5% | 3.3%
O=S(=O)(NC1CC1)c1ccc(Br)cc1N1CCC[C@H]1CO | ? | -14.6%
O=c1[nH]c2ccc(Cl)cc2c(-c2ccccc2)c1CN1CCOCC1 | i | -17.6%
Cc1c(NC(=O)COC(=O)c2c3c(nc4ccccc24)CCCC3)c(=O)n(-c2ccccc2)n1C | i | -9.8%

# Part of the list above, as labelled records:
> COc1cccc(C(=O)OCC(=O)c2c[nH]c3ccccc23)c1O
  VACV mCherry inh: -14.4%	VACV Venus inh: -6.2%
> CCCOc1ccc(-c2nnc(N)s2)cc1
  VACV mCherry inh: i	VACV Venus inh: -9.5%
> Cc1nc(Sc2ccc(Cl)cc2)c(C#N)c(C)c1[N+](=O)[O-]
  VACV mCherry inh: ?	VACV Venus inh: -1.2%
> CCc1ccccc1S(=O)(=O)Cc1ccc(C(=O)NCCc2ccc(Cl)cc2)o1
  VACV mCherry inh: -27.2%	VACV Venus inh: -23.9%

# New compounds follow
compound | VACV mCherry inh | VACV Venus inh
CC(=O)N1CCC(=O)Nc2ccc([N+](=O)[O-])cc21 | i | -1.7%
O=C(C1CC1)N1CCc2cc(Br)c(S(=O)(=O)N3CCCCCC3)cc21 | ? | -14.6%
CC(C)N(Cc1ccccc1)C(=O)CCS(=O)(=O)c1cc2c(cc1Cl)NC(=O)CO2 | -12.0% | -8.8%
Cc1ccc(C(C)C)c(OC(=O)/C=C/c2ccccc2)c1 | -5.0% | -6.8%
COc1ccc(C(OCC(O)CN2CCC(O)CC2)c2ccc(OC)cc2)cc1 (configuration not stated) | -13.3% | -1.4%
C/C(=N\NC(=O)c1ccc(Br)o1)c1cc2c(cc1NC(=O)CCC(=O)O)OCO2 | -3.1% | 1.7%
COc1ccc(C(=O)NC(C)C2CC3CCC2C3)c(OC)c1 (configuration not stated) | -7.9% | -5.7%
COC(=O)c1c(N)c2ccccc2[nH]c1=O | 4.1% | 5.8%
O=C1CC(NC2CCN(C(=O)c3cccc(F)c3)CC2)C(=O)N1 (configuration not stated) | 49.2%[activator] | 6.4%
CCOC(=O)c1ccccc1NC(=O)COC(=O)CC1CCCCC1 | i | -11.5%
CC(C)c1cc(C(=O)Nc2cc(Br)ccc2O)no1 | i | -6.5%
COc1ccc(CNc2nc(-c3cccnc3)nn2S(C)(=O)=O)cc1 | i | -26.6%

# The list goes on:
# Below each SMILES: VACV mCherry inh	VACV Venus inh
Cc1cc(C)c2nc(NC(=O)c3ccc(S(=O)(=O)N4CCC(C)CC4)cc3)sc2c1
 : -2.6%	-6.2%
Nc1ncnc2c1ncn2[C@@H]1O[C@H](CN=C2NS(=O)(=O)c3ccccc32)[C@@H](O)[C@H]1O
 : -6.6%	-0.1%
O=C(CN1C(=O)c2ccccc2C1=O)NC(Cc1ccccc1)C(=O)O (configuration not stated)
 : -9.6%	1.2%
C/C(=N\OCC(=O)OCC(=O)N(Cc1ccccc1)C(C)(C)C)c1ccc2c(c1)OCO2
 : -12.0%	-8.8%
CCOC(=O)c1c(C)n(-c2ccccc2)c2ccc(OC(=O)COc3ccccc3)cc12
 : -6.5%	4.0%
CSCCC(c1nnnn1C1CCCCC1)N1CCN(C/C=C/c2ccccc2)CC1 (configuration not stated)
 : -14.1%	-5.1%
CCCCCN(C(=O)CCC(=O)OCc1ccc(C(C)(C)C)cc1)c1c(N)n(CCCC)c(=O)[nH]c1=O
 : ?	?
CN(C)c1ccc(P(=O)(OCc2ccccc2)C(O)c2ccccc2F)cc1 (configuration not stated)
 : i	9.0%
CCOC(=O)c1c(NC(=O)C(C)OC(=O)c2ccc(NC(=O)CC#N)cc2)sc2c1CCCC2 (configuration not stated)
 : -25.8%	-19.4%
O=C(CN1CCC(NC(=O)c2cccc(F)c2)CC1)NCc1cccs1
 : -0.6%	-14.6%
Cn1c(SCc2ccc(F)cc2)nc2c([nH]c3ccccc32)c1=O
 : -7.5%	?
CC(=O)NC(c1ccc(F)c(F)c1)c1nc(-c2ccc(F)c(Cl)c2)cs1 (configuration not stated)
 : -16.6%	27.5%
O=C(Cn1cnc2c(nnn2Cc2ccc(Cl)cc2)c1=O)OCc1ccccc1
 : -0.1%	-7.1%
CC1(C)C2(C#N)C(N)=NC3(OCCO3)C12C#N (configuration not stated)
 : .	5.3%
O=C(O)c1ccc(CSc2ncn[nH]2)cc1
 : -6.8%	-3.4%
C/C(C/C(C)=C1/SC(=S)NC1=O)=C1\SC(=S)NC1=O
 : i	9.0%
CCC1CN(CCNC(=O)c2ccc(C#CC(C)(C)O)cc2)Cc2cc(OC)ccc2O1 (configuration not stated)
 : -14.6%	-8.2%
COc1ccccc1/C=N/Nc1nc(C)cc(=O)[nH]1
 : 3.6%	-16.0%
COC(=O)Cn1c2c(c3cc(C)ccc31)CCCC2
 : -12.2%	-2.6%
CC(C)OC(=O)c1cn(-c2ccccc2)nc1-c1ccco1
 : -19.5%	-3.5%
CCOc1c(C(N)=O)c(-c2ccccc2)c2c(=O)[nH]c3ccccc3n12
 : .	-10.7%
Cc1cccc(OCC(=O)Nc2ccccc2OCc2cc(=O)n3cc(C)ccc3n2)c1
 : -29.3%	-22.5%
CN(C)c1cc[nH]c(=O)c1C#N
 : -17.3%	-7.3%
CN(c1ccc(C(=O)NC2CCCC2)cc1)S(=O)(=O)c1ccc(Cl)cc1
 : -14.6%	-9.2%
CCCCNC(=O)c1ccc(-c2nc(CS(=O)(=O)c3ccc(C)cc3)c(C)o2)cc1
 : -7.9%	-8.6%
CN1c2ccccc2C(C)(C)C12C=Nc1c(ccc3ccccc13)O2 (configuration not stated)
 : -17.0%	2.2%
CSCCC(NC(=O)C1CCC(C)CC1)C(=O)Nc1ccc(NC(C)=O)cc1 (configuration not stated)
 : i	-6.3%
O=C(c1ccccn1)N1CCN(S(=O)(=O)c2ccc(F)cc2)CC1
 : -11.9%	0.2%
COc1cc(C2C(C#N)=C(N)Oc3c2ccc2ccccc32)ccc1OCC(=O)Nc1ccc(C)cc1 (configuration not stated)
 : ?	-22.9%
CCn1c(SCC(=O)NC(C)(C)C)nnc1-c1ccccn1
 : i[1.46 µM]	-10.1%
Cc1nc(C2CCCCC2)c(-c2ccccc2)c(N2CCOC2=O)c1C
 : i	-18.0%
Cc1ccc(-c2cc(C(=O)Nc3c(C(=O)c4ccc(C)c(F)c4)oc4ccccc34)no2)cc1
 : -8.2%	5.7%
